Assay outcomes deposited in PubChem BioAssay by several laboratories.
T cruzi inh – blocks replication of Trypanosoma cruzi; T. cruzi beta-gal in NIH3T3, luminescence, 90 h; inhibition, % (test concentration not listed); 300,000 compounds, 1.4% hits; AID 1885;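 active = mean inhibition across valid replicates above about 55%, limit read from the data; inconclusive = mean below that limit but half or more replicates reach it; inactive = mean below it, under half of replicates reach it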;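 note: signal also drops with host cell toxicity which is not excluded here; 0% = plate median of DMSO wells and 100% = zero luminescence signal; higher percent means less beta-gal luminescence so fewer parasites; stock transfer was 50 nL into about 50 µL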
AF4-AF9 inh – MLL-AF4/AF9 protein interaction inhibition; P42568; AlphaScreen, biotin-AF4 peptide binding to FLAG-AF9; inhibition, % at 10 µM; 350,000 compounds, 0.47% hits;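 active = every replicate reaching a set inhibition limit, whatever the replicate mean, cut at about 25% in these data; inconclusive = mean inhibition reaches that limit but some replicates miss it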;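 note: 0% = plate neutral control median and 100% = total signal loss; the record names both 10 and 1 µM as test concentration; the first replicate is given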
UCH37 inh – blocks the human deubiquitinase UCH37; purified proteasome/UCH37, Ub-AMC cleavage fluorescence; AID 588478; inhibition, % (no concentration beside the values); 330,000 compounds, 0.33% hits;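 active = mean of two replicates above 20%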;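 note: 0% = compound-free wells with enzyme and 100% = wells lacking proteasome; stock transfer was 100 nL into about 20 µL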
Target sequence (Q9Y5K5 whole entry, looked up): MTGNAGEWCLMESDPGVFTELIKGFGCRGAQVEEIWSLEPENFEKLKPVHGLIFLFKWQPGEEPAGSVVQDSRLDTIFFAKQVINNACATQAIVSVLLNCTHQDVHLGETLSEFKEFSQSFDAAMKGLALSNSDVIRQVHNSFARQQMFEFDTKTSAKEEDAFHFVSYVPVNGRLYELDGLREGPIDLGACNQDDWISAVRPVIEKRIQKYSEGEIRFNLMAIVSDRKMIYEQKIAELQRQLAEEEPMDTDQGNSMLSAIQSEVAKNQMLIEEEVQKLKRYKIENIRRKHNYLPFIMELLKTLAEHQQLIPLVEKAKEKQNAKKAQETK
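system = Proteasome-associated human UCH37 deubiquitinase | amount = 0.15 nM proteasome as dispensed | medium = pH 7.4 Tris-HCl (50 mM) with ovalbumin, ATP-MgCl2, DTT | incubation = 30 min preincubation with enzyme, 25 min cleavage at room temperature | detection = AMC fluorescence 355/460 nm | read-out basis = percent inhibition | controls = no-proteasome and no-compound wells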
E coli growth – E. coli growth inhibition; Escherichia coli growth, OD600, 23 h; hits give low values; 330,000 compounds, 0.21% hits; OD600 absorbance (no concentration beside the values);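 active = OD600 absorbance below the run mean of sample wells minus 3.6 SD, in any replicate, cut at about 0.56 in these data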;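 note: stock transfer was 300 nL into about 60 µL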
FGF22 binding – shifts melting point of recombinant human FGF22; recombinant FGF22 thermal shift, SYPRO orange fluorescence; percent of sucrose octasulfate shift, DMSO zero; calls only at 9.99 µM; Q9HCT0; 340,000 compounds, 1.5% hits;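 active = melting point raised past a set limit in the mean and every replicate; inconclusive = no clear call; three in four hits are not shown here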
Target sequence (Q9HCT0 whole entry, looked up): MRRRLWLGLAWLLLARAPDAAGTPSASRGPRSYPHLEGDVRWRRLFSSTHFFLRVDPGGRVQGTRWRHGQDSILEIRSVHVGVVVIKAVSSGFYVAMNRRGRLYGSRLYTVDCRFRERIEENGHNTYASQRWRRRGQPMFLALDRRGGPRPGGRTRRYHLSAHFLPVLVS
Beta cell apopt – beta cell apoptosis inhibition; protection from apoptosis, % (concentration not given with the values); INS-1E cytokine-induced death, ATP luminescence, 48 h; percent of positive-control rescue, neutral wells zero; 300,000 compounds, 0.8% hits;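 active = all replicates at 75% or more, or half of them and the mean; inconclusive = half reach 75% but not the mean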;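 note: 0% = cytokine-treated negative control wells and 100% = positive control rescue; higher means more ATP so stronger rescue from cytokine killing; wells of about 40 µL received 100 nL stock; the first replicate is given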
Bfl-1 A1 inh – inhibitors of the anti-apoptotic protein A1, read as caspase activation | MEF A1-2A-BIM cells, Caspase-Glo 3/7 luminescence, 3 h; percent of clofoctol response, vehicle zero | caspase activation, % (concentration not given with the values) | 330,000 compounds, 0.066% hits;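 active = over half of replicate activation scores above 10%, or exactly half above 10 with the replicate mean above 10; inconclusive = replicate mean below 10 yet half the replicates above 10; inactive = over half of replicates below 10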;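 note: wells of about 30 µL received 50 nL stock; many hits fall short of the cut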
Ecoli rRNA inh – selective bacterial rRNA inhibition in E. coli; 350,000 compounds, 1.6% hits; E. coli WT GFP vs humanized-ribosome RFP mutants, fluorescence, 24 h; hits give low values; DMSO median 0, no signal -100; GFP signal change (wild-type ribosome), % (concentration not given with the values);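 active = significant combined selectivity score with lowered wild-type GFP, culture density cut under 30%, mutant RFP and density less affected; inactive = any of these conditions unmet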; note: one replicate is shown; some compounds called inactive have numbers as strong as hits
Ecoli rRNA inh OD600 – further read-out of Ecoli rRNA inh, marked with its call; OD600 change, %; measured here: OD600 growth;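 optical density of the mix in the first replicate; 0 = DMSO median and -100 = no signal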
Ecoli rRNA inh RFP – also measured in Ecoli rRNA inh; calls as there; RFP signal change, %; measured here: RFP humanized mutant strains;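 first replicate; 0 = DMSO median and -100 = no signal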
* marks the source's active call; other numbers are inactive results; i = inactive; ? = inconclusive; . = no result given; + = active, no number.

compound	T cruzi inh	AF4-AF9 inh	UCH37 inh	E coli growth	FGF22 binding	Beta cell apopt	Bfl-1 A1 inh	Ecoli rRNA inh	Ecoli rRNA inh OD600	Ecoli rRNA inh RFP
CC(C)(C)NC(=O)CSc1nc2ccc(Nc3nc(N4CCOCC4)nc(N4CCOCC4)n3)cc2s1	58*	5.1	-1.4	0.7	i	8	0.0	-19	-18	-1.0
Cc1cnc(CNC(=O)CC2C(=O)NCCN2Cc2ccccc2C(F)(F)F)cn1 (centres undefined)	4	-2.1	-0.8	0.69	i	-1	0.3	6	17	0.4
Cc1ccc(-c2csc(NC(=O)CSc3ncn(-c4ccccc4)n3)n2)cc1	-22	.	6.3	0.72	.	-1	-0.5	.	.	.
COc1ccc(N2CCN(C(=O)CSc3nnc(C)c(=O)[nH]3)CC2)cc1	-4	.	1.2	0.64	.	-12	-0.4	.	.	.
Cc1ccc(S(=O)(=O)NCCC(=O)NCC(c2cccs2)N(C)C)cc1C (centres undefined)	.	1.9	2.6	0.65	i	-3	-0.7	14	9	0.9
COc1cc(OC)c(NS(=O)(=O)c2ccc3c(c2)NC(=O)CO3)cc1Cl	-2	2.4	2.0	0.67	i	5	-0.1	-11	-8	2.0
CC(C)CCCN1CCN=C1Nc1ccccc1	?	3.7	.	.	i	-1	0.0	8	7	-1.4
Cc1ccc(NC(=O)CN2C(=O)N/C(=C/c3ccc(C)o3)C2=O)cc1	-16	.	3.5	0.74	.	-6	-1.2	.	.	.
COc1ccccc1CCNC(=O)c1ccc(Br)s1	8	1.4	0.9	0.68	i	10	-0.7	-20	-27	-3.6
Cc1ccc(C)c(OCc2cc(C(=O)NC3CCN(Cc4ccccc4)CC3)no2)c1	27	-5.3	2.1	0.64	i	14	0.9	-24	-48	-5.7
O=C(NCCc1ccccc1)c1cnc2ccccc2n1	-1	1.3	0.9	0.61	i	-5	-1.8	-14	-10	-9.9
Cc1c(NC(=O)c2cc3nc(-c4ccccc4)cc(C)n3n2)c(=O)n(-c2ccccc2)n1C	.	.	-17	0.79	.	-1	0.0	.	.	.
CCOC(=O)c1[nH]c2ccccc2c1NC(=O)c1ccc(S(=O)(=O)N(C)C)cc1	-1	0.3	3.0	0.73	i	.	0.0	-4	-12	1.2
O=C(NNc1ccc(Cl)cc1)C1CCC1	-7	.	4.0	0.69	i	-14	0.1	24	9	5.1
Brc1ccccc1OCCNCc1ccccc1	5	2.7	5.2	0.64	i	6	-1.1	-27	-22	2.6
COc1ccccc1NC(=O)NCCN1C(=O)C2C3C=CC(C3)C2C1=O (centres undefined)	-13	1.3	-3.3	0.72	i	-4	0.0	-4	-10	-2.6
CC(C)NC(=O)CCc1nc2cccnc2n1-c1ccccc1	-4	-2.3	1.5	0.68	i	-8	0.7	2	1	0.8
Oc1c(Br)cc(Br)cc1CNc1cnc2ccccc2c1	-9	-3.8	-25	0.58	i	-14	0.3	-28	-65	-0.2
O=C(CSc1nnc(Cc2csc(Nc3cccc(Cl)c3)n2)o1)N1CCc2ccccc21	42	.	-1.4	0.67	.	9	0.3	.	.	.
CCOC(=O)c1c(CN2CCN(C)CC2)oc2ccc(O)cc12	-13	.	-0.7	0.68	.	-2	0.3	.	.	.

Sorted by count of non-hydrogen atoms (high to low): part of the list above.
compound	T cruzi inh	AF4-AF9 inh	UCH37 inh	E coli growth	FGF22 binding	Beta cell apopt	Bfl-1 A1 inh	Ecoli rRNA inh	Ecoli rRNA inh OD600	Ecoli rRNA inh RFP
Cc1c(NC(=O)c2cc3nc(-c4ccccc4)cc(C)n3n2)c(=O)n(-c2ccccc2)n1C	.	.	-17	0.79	.	-1	0.0	.	.	.
O=C(CSc1nnc(Cc2csc(Nc3cccc(Cl)c3)n2)o1)N1CCc2ccccc21	42	.	-1.4	0.67	.	9	0.3	.	.	.
Cc1ccc(-c2csc(NC(=O)CSc3ncn(-c4ccccc4)n3)n2)cc1	-22	.	6.3	0.72	.	-1	-0.5	.	.	.
Cc1ccc(S(=O)(=O)NCCC(=O)NCC(c2cccs2)N(C)C)cc1C (centres undefined)	.	1.9	2.6	0.65	i	-3	-0.7	14	9	0.9
COc1ccccc1NC(=O)NCCN1C(=O)C2C3C=CC(C3)C2C1=O (centres undefined)	-13	1.3	-3.3	0.72	i	-4	0.0	-4	-10	-2.6
Cc1ccc(NC(=O)CN2C(=O)N/C(=C/c3ccc(C)o3)C2=O)cc1	-16	.	3.5	0.74	.	-6	-1.2	.	.	.
CC(C)NC(=O)CCc1nc2cccnc2n1-c1ccccc1	-4	-2.3	1.5	0.68	i	-8	0.7	2	1	0.8
Oc1c(Br)cc(Br)cc1CNc1cnc2ccccc2c1	-9	-3.8	-25	0.58	i	-14	0.3	-28	-65	-0.2
Brc1ccccc1OCCNCc1ccccc1	5	2.7	5.2	0.64	i	6	-1.1	-27	-22	2.6
O=C(NNc1ccc(Cl)cc1)C1CCC1	-7	.	4.0	0.69	i	-14	0.1	24	9	5.1

The list continues.
compound	T cruzi inh	AF4-AF9 inh	UCH37 inh	E coli growth	FGF22 binding	Beta cell apopt	Bfl-1 A1 inh	Ecoli rRNA inh	Ecoli rRNA inh OD600	Ecoli rRNA inh RFP
COc1cccc(CNc2ccc3[nH]c(=O)[nH]c3c2)c1OCc1ccc(F)cc1	-16	9.8	.	.	i	1	1.5	-9	-10	6.5
O=C(NCc1ccco1)c1ccc2c(c1)OCCO2	-7	1.4	-1.1	0.72	i	0	-1.0	8	9	0.1
COc1ccc(-c2ccnc3cc(C(=O)O)nn23)cc1	6	-2.1	-199	0.69	i	.	0.1	15	14	-1.4
O=C(OCC(=O)N1CCOCC1)c1cnc(Cl)c(Cl)c1	.	-0.8	0.7	0.7	i	.	.	10	12	-1.5
CCN1C(=O)c2cccc3c(S(=O)(=O)Nc4ccc(O)c(C(=O)O)c4)ccc1c23	-12	-2.4	10	0.7	+	2	-0.1	2	6	-0.6
COc1ccc(C(c2sc3nc(C)nn3c2O)N2CCN(Cc3ccccc3)CC2)cc1OC (centres undefined)	8	-5.4	4.5	0.77	i	-1	0.2	1	-4	0.6
CC(C)[C@H](NC(=O)N1CCn2c1nc1ccccc12)C(=O)NCc1ccccc1Cl	8	2.6	0.6	0.71	i	-10	0.6	14	6	1.6
Cc1ccc(C(=O)CCC(=O)NC2=NCCS2)cc1	.	-0.1	2.5	0.7	i	-6	-0.9	8	7	0.5
Cc1cc(C(=O)Nc2ccc(S(=O)(=O)Nc3nccs3)cc2)c(C)o1	-17	.	3.2	0.67	.	-4	-0.3	.	.	.
COc1ccc(CCC(=O)N2CCN(c3ccccc3)CC2)cc1OC	2	0.9	.	.	i	0	-0.7	3	4	0.2
COc1cccc(CNC(=O)CSc2cc(=O)n(C)c3ccccc23)c1	12	-8.0	1.1	0.7	i	2	0.3	3	5	-0.1
CCOc1ccc(Oc2nc(N(CC)CC)nc(N3CCOCC3)n2)nn1	17	-1.2	5.0	0.69	i	-6	-0.3	5	1	1.4
CC(=O)c1sc(NC(=O)c2cnc(Cl)c(Cl)c2)nc1C	0	-0.9	12	0.67	i	15	-7.0	-33	-43	-3.8
COc1ccc(C(=O)COC(=O)c2cncc(Br)c2)cc1	.	0.7	.	.	i	-6	-5.2	6	16	-1.4
COC(C[C@@H](O)[C@H](C)[C@H](O)COCc1ccccc1)OC	-16	-1.4	5.5	.	i	.	.	6	-1	9.9
CCc1ccc(-c2nc(CN3CCC(C(=O)NCc4ccccc4OC)CC3)c(C)o2)cc1	-14	.	1.2	0.71	.	13	-0.6	.	.	.
CCOC(=O)[C@@H]1[C@H]2COc3cc(OC)ccc3[C@H]2N2C(=O)N(c3ccc(F)cc3)C(=O)[C@@]12C	2	?	4.6	.	i	3	-0.3	1	-1	-1.3
CC(=O)Nc1ccc(S(=O)(=O)Nc2c(NC3CCCCC3)c3ccccc3oc2=O)cc1	-4	-1.4	1.3	0.71	i	.	0.2	4	2	1.7
CCOC(=O)N1CCN(S(=O)(=O)c2cc(Br)cnc2N)CC1	-7	.	-4.3	0.75	.	5	0.5	.	.	.
Cc1cc(=O)oc2cc(Oc3ccc(C(N)=O)cc3[N+](=O)[O-])ccc12	-6	-2.4	-68	0.65	i	-1	0.6	14	-4	-3.2

compound	T cruzi inh	AF4-AF9 inh	UCH37 inh	E coli growth	FGF22 binding	Beta cell apopt	Bfl-1 A1 inh	Ecoli rRNA inh	Ecoli rRNA inh OD600	Ecoli rRNA inh RFP
CC1(C)Cc2c(c(N3CCOCC3)nc3sc(C(=O)Nc4cccc(Cl)c4)c(N)c23)CO1	-2	-0.4	-259	0.7	i	6	-1.0	-2	2	-0.2
Fc1ccc(-c2c[nH]c(=S)n2Cc2ccccc2)cc1	-4	2.6	4.3	0.64	i	-3	0.6	-28	-35	-4.7
O=C(O)CNc1ncccc1[N+](=O)[O-]	11	-18	8.4	0.7	i	1	0.3	16	6	-0.3
COc1ccc2cc(N=Cc3nc(-c4ccc(C)cc4)oc3O)cnc2c1	-7	-1.3	-2.3	0.72	i	-2	0.9	15	6	-1.5
CC1Cc2cc(/C(O)=C3\C(=O)C(=O)N(CCN(C)C)C3c3ccccc3F)ccc2O1 (centres undefined)	8	.	5.7	0.71	.	1	0.0	.	.	.
COc1ccc(CC(=O)NNC(=S)NC(=O)c2cccnc2)cc1	-19	0.5	6.0	0.7	i	-3	-0.7	8	12	2.5
O=c1oc2cc(OCc3c(F)cccc3Cl)ccc2cc1-c1ccccn1	8	.	-273	0.71	.	7	1.0	.	.	.
Cc1cc(C)n(CCC(=O)N/N=C/c2ccc(Br)c([N+](=O)[O-])c2)n1	-5	0.8	.	.	i	1	0.5	-15*	2.7*	3.5*
Cc1cc(C)nc(NC(N)=NCCc2c[nH]c3ccccc23)n1	44	8.7	3.3	0.68	i	-3	2.5	-49	-71	-11
COc1cc(OC)c(NC(=O)CCCn2c(=O)oc3ccccc32)cc1Cl	2	.	3.3	0.7	.	-3	0.0	.	.	.
O=C(C=CC(=O)OC1CCCCC1)OC1CCCCC1	.	-2.9	-1.2	0.71	i	.	.	12	11	1.7
CCOc1ccc(N(C(=O)CNC(=O)c2cccs2)C(C(=O)NCC2CCCO2)c2ccc(OC)c(OC)c2)cc1 (centres undefined)	-1	0.2	6.4	0.72	i	-6	-0.2	3	6	1.3

Some of the compounds tested; count on the stated rates, not on these rows.
